Assay outcomes from PubChem BioAssay.
AID923 – qHTS Assay for Allosteric/Competitive Inhibitors of Caspase-1: Spectroscopic Profiling in AFC Spectral Region. Potency, µM (series often up to 57.5 µM), for the others: at the top dose fluorescence increase, hits mostly activators. 1.1% of 75,000 active. AID 923, 2007. compound fluorescence, AFC spectral region (405/520 nm); almost no hit is shown here; active = well fitted activation curve with a large enough effect; inconclusive = small, poorly fitted or top-dose-only effect;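 note: potency is the fitted concentration of half-maximal effect; 0% is about no effect; scaled to a free AFC standard on each plate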
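Titrations up to 57 uM read every 20 sec for 3 min (405/520 nm) with 50 nM caspase 1 and 5 uM Ac-WEHD-AFC, pH 7.5 HEPES buffer. Fluorescence-vs-time intercept gave baseline, scaled against on-plate AFC standard.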
Resorufin fluor – qHTS Assay for Spectroscopic Profiling in Resorufin Spectral Region. max dye-equivalent concentration, M. AID 588, 2007. Compound fluorescence, resorufin region 547/598 nm, buffer; stronger effect = higher value. 0.04% of 59,000 active; active = above 10 nM dye equivalent; inconclusive = 1 to 10 nM; inactive = 1 nM or less; a few of its hits are not listed in these tables; note: highest value over a series up to 38 µM
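Compounds in 100 mM Tris, pH 8.0, incubated 15 min at room temperature, then fluorescence read at 547 nm excitation/598 nm emission. Signal converted to dye-equivalent concentration via an on-plate six-point resorufin standard curve, per compound concentration.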
A488 autofl – qHTS Assay for Spectroscopic Profiling in A488 Spectral Region; AID 591, 2007; 0.1% of 59,000 active; max dye equivalency, M; compound autofluorescence, A488 spectral region, dye equivalency; stronger effect = higher value; active = above 10 nM dye equivalent; inconclusive = 1 to 10 nM; inactive = 1 nM or less; about half of its hits are not listed in these tables;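 note: highest value over a series up to 38 µM; compound alone in buffer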
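Readout is A488 dye-equivalent concentration, calibrated by a per-plate six-point Alexa 488 series. Compounds in 100 mM Tris buffer pH 8.0 were incubated 15 min at room temperature. Plates were imaged using 480 nm excitation/540 nm emission filters.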
A647 fluor – qHTS Assay for Spectroscopic Profiling in A647 Spectral Region. Compound fluorescence, A647 channel (570/671 nm), Tris buffer. max dye-equivalent concentration, M. 59,000 tested, under 10 active; active means above 1 µM dye equivalent; inconclusive means 0.1 to 1 µM; inactive means 0.1 µM or less;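 note: values scaled relative to a standard on each plate; highest value over a series up to 38 µM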
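Buffer was dispensed, compounds and Alexa 647 standards were pin-transferred, and plates sat 15 min at room temperature. Intensity at 570/671 nm was then converted to dye-equivalent concentration using the plate's A647 standard curve.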
TSHR agonist – qHTS Assay for Agonists of the Thyroid Stimulating Hormone Receptor; AID 926, 2007; HEK293-CNG-TSHR cells (CNG channel as cAMP sensor), membrane potential dye, cAMP; Potency, µM (titrated, usually from 57.1 µM), inactives show at the top dose activation, usual class: activators; 0.48% of 73,000 active; Thyrotropin receptor (Homo sapiens), P16473; active = well fitted activation curve of enough size with the parental cells flat; inconclusive = any curve in the parental cells; inactive = parental cells flat and receptor cells flat or falling; note: potency is the fitted concentration of half-maximal effect; % of control where 0% means no effect; weak receptor curves with flat parental cells got no call and are not listed
Target sequence (P16473 whole entry, looked up): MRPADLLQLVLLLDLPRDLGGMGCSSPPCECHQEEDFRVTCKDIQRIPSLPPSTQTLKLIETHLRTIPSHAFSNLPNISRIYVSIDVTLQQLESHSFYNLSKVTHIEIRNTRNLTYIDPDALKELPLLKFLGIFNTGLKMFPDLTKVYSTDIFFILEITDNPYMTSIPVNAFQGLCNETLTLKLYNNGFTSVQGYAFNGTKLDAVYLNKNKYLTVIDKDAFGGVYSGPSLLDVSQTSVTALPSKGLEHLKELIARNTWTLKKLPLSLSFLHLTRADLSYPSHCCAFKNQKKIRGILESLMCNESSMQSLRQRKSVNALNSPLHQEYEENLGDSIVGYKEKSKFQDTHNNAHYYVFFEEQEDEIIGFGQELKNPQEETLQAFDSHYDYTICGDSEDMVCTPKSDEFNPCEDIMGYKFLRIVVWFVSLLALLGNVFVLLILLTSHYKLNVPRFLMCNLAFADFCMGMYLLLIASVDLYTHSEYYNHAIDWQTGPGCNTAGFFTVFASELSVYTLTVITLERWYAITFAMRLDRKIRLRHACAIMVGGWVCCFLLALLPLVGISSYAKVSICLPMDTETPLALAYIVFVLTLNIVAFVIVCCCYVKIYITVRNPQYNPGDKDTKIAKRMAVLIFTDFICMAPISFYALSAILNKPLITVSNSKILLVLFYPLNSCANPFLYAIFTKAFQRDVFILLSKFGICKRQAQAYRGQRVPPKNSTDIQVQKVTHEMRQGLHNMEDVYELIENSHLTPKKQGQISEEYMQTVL
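HEK 293 cells stably expressing TSHR and a cAMP-gated CNG channel; parental CNG-only cells as counterscreen. Cells preloaded 60 min with membrane potential dye plus 100 uM RO 20-1724, then compound 30 min; fluorescence read at 590 nm.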
Active calls of the source: *; i = inactive; ? = inconclusive; nt = not tested or not shown; [ ] = dose if it differs, or a comment. A portion of the library; the hit share may differ from the screen's.

SMILES	AID923	Resorufin fluor	A488 autofl	A647 fluor	TSHR agonist
C#CCCCO/N=C1/C[C@@H](O)[C@@H](O)[C@@H]2[C@H]3C(=O)N(c4ccc(F)cc4F)C(=O)[C@@H]3CC[C@H]12	2.4%[11.5 µM]	nt	nt	nt	-2%[11.4 µM]
Cn1c(=O)[nH]c(=O)c2c1nc1n2CCCS1	-1.0%	i	i	1e-09	-13%
C[C@@H](N)/C(N)=N/O	1.2%[11.5 µM]	i	i	3.4e-08	-2%[11.4 µM]
O=C(CSc1nc2ccccc2s1)N1CCN(C(=O)c2ccco2)CC1	-2.6%	i	i	1.5e-08	4%
Cc1ccc(C(=O)Nc2ccc3c(c2)OCO3)cc1S(=O)(=O)N1CCCC1	-1.4%	i	i	1.3e-08	7%
CN(C)/C=c1\sc2c(C#N)cc(C(=O)c3ccc(Br)cc3)n2c1=O	1.7%	i	4.3e-08M*	2.5e-08	-16%
O=C(O)CC/C=C\CC[C@H]1[C@@H](N2CCCCC2)[C@@H](O)C[C@@H]1OCc1ccc(-c2ccccc2)cc1	-2.9%	nt	nt	nt	7%
Cc1nc2c3c(-c4ccccc4)nc(N4CCOCC4)nc3nn2c(C)c1CCC(=O)O	4.5%	i	i	3e-08	-2%
Cc1cc(NC(=O)CSc2nnc(-c3ccc(Cl)s3)o2)no1	0.4%	i	i	1.3e-09	2%
CCOC(=O)C1=C(C)Nc2nc(C)nn2C1c1cc(OC)ccc1OC (stereo not given)	-0.1%	nt	nt	nt	-5%
Cn1c(CNc2nc(-c3ccccc3)cs2)nnc1SCC(=O)OC1CCCCC1	0.6%	i	i	1.6e-08	5%
Cc1ccc(-c2cc(-c3ccccc3Cl)[nH]n2)c(O)c1	-1.2%	nt	nt	nt	6%
O=C(O)/C=C\c1c2ccc(=O)c(O)c-2oc2c(O)c(O)ccc12	-3.9%[11.5 µM]	i	i	1e-09	0%[11.4 µM]
CC(C)C(=O)Nc1ccc(C(=O)NCc2cccnc2)cc1	1.0%	i	i	1.8e-08	-1%
Cc1ccc(Oc2nc3c(c(=O)n(Cc4ccccc4F)c(=O)n3C)n2C)cc1	nt	i	i	6.8e-08	nt

Profiles, looked up by structure. Order of screens: AID923, Resorufin fluor, A488 autofl, A647 fluor, TSHR agonist
Shown for CC(C)C(=O)Nc1ccc(C(=O)NCc2cccnc2)cc1 = 1.0%, i, i, 1.8e-08, -1%
Shown for O=C(O)/C=C\c1c2ccc(=O)c(O)c-2oc2c(O)c(O)ccc12 = -3.9%[11.5 µM], i, i, 1e-09, 0%[11.4 µM]
Shown for Cc1ccc(-c2cc(-c3ccccc3Cl)[nH]n2)c(O)c1 = -1.2%, nt, nt, nt, 6%
Shown for Cc1cc(NC(=O)CSc2nnc(-c3ccc(Cl)s3)o2)no1 = 0.4%, i, i, 1.3e-09, 2%
Shown for Cc1nc2c3c(-c4ccccc4)nc(N4CCOCC4)nc3nn2c(C)c1CCC(=O)O = 4.5%, i, i, 3e-08, -2%

Following part:
SMILES	AID923	Resorufin fluor	A488 autofl	A647 fluor	TSHR agonist
CC(C)(C)[Si](C)(C)c1c2c(nc3ccc(OCc4ccccc4)cc13)-c1cccc(=O)n1C2	6.7%	nt	nt	nt	-3%
CCCn1c(-c2ccc(F)cc2)nc2c(NCCCN(C)C)nc(C)nc21	0.5%	nt	nt	nt	?
N#CC1=C2SCN(Cc3ccco3)CN2C(=O)CC1c1ccc(Cl)cc1 (stereo not given)	-1.1%	i	i	1e-09	20%
Cc1ccc(S(=O)(=O)N2CCN(S(C)(=O)=O)C2)cc1	-0.3%	i	i	2.5e-09	?
CCn1c(SCC(=O)Nc2nnc(C)s2)nnc1-c1ccncc1	3.4%	i	i	1e-09	-1%
O=C(CSc1nc2ccccc2c(=O)[nH]1)N1CCOCC1	0.1%	i	i	6.1e-09	6%[11.4 µM]
CC(C)(C)NC(=O)NC(=O)COc1ccccc1C#N	3.1%	i	i	3.9e-09	-3%
COc1ccc(CCNC(=O)CN(C2CCCCC2)S(C)(=O)=O)cc1OC	2.7%	i	i	6.9e-09	5%
N#CC1=C(N)C(C#N)(C#N)C2(CCC3(CC2)OCCO3)C2CC3(CC=C12)OCCO3 (stereo not given)	1.4%	i	i	7.2e-09	-3%
CCCC(=O)c1cc(F)c(N2CCN(S(=O)(=O)c3ccccc3)CC2)cc1C	-2.0%	nt	nt	nt	8%[11.4 µM]
COCCNS(=O)(=O)c1cc(F)ccc1OC	0.3%	i	i	1e-09	3%
CCOC(=O)c1c(C)oc(NC(=O)COc2ccc(Cl)cc2C)c1C#N	-0.8%	i	i	1.7e-09	nt
CCOc1ccc(N2C(=O)CC(N3CC(C)OC(C)C3)C2=O)cc1 (stereo not given)	-1.7%	nt	nt	nt	-1%
COc1cc(N2CN=c3s/c(=C\c4ccccn4)c(=O)n3C2)cc(OC)c1OC	-0.8%	i	i	3.3e-09	6%
CCCOc1ccc(Cn2cnc3ccccc32)cc1	0.6%	i	i	1.3e-08	?
COCc1nc(-c2cc(OC)c(OC)c(OC)c2)no1	-3.1%	i	i	8.6e-09	0%
CC1Cc2ccccc2N1C(=O)COC(=O)c1ccc(S(=O)(=O)N(C)C)cc1 (stereo not given)	-0.3%	i	i	9e-09	3%
Nn1c(SCC(=O)NC2CCCc3ccccc32)nnc1-c1cccs1 (stereo not given)	-0.1%	i	i	3e-08	?
O=C1CC(N2CCN(C/C=C/c3ccccc3)CC2)C(=O)N1Cc1ccc(N2CCCC2=O)cc1 (stereo not given)	-1.8%	i	i	1e-09	9%
COc1ccc(CCNC(=O)C2CC(=O)N(c3ccccc3)C2)cc1OC (stereo not given)	0.6%	nt	nt	nt	3%[11.4 µM]
CCOc1ccccc1N1CCN(S(=O)(=O)c2cccs2)CC1	0.7%	i	i	1e-09	?
COc1ccccc1NC(=O)c1ccc(NC(=O)CSc2nnnn2C)cc1	0.0%	i	i	3e-08	-3%
CC(C)c1c(C#N)c(N)nc(SCC(=O)c2cc3ccccc3oc2=O)c1C#N	5.2%	i	i	1e-09	?
CCOC(=O)CN(C(=O)CN1CCOCC1)c1ccc(Br)cc1	0.6%	i	i	3.6e-09	6%
C=CCn1c(Br)nc2c1c(=O)n(C)c(=O)n2C	1.3%	i	i	3.1e-08	-2%
COc1ccc(C2(O)CCN(C(=O)NC3CCCCC3)CC2)cc1	1.2%	i	i	4.8e-09	0%
CCCCNC(=O)C(c1ccc(OCC(=O)OC)c(C(=O)OC)c1)N(Cc1ccccc1)C(=O)CCCCCN1C(=O)NC(c2ccc(-c3ccccc3)cc2)C(C(=O)OCc2ccccc2)=C1C (stereo not given)	2.7%	nt	nt	nt	0%
CCN1C(=O)CSc2ccc(C(=O)NCCCN3CCOCC3)cc21	2.9%	i	i	1.6e-08	29%
CCC1CCCCN1C(=O)N[C@@H](CCSC)C(=O)OC (stereo not given in full)	-1.8%	i	i	1e-09	0%
Cc1cccc(N(CC(=O)NCc2ccccc2)C(=O)Cn2nnc(-c3ccc(C)o3)n2)c1	0.1%	i	i	4.2e-08	?
COc1ccc(N2CCN(C(=O)CNC(=O)Cn3c(C)cc4ccccc4c3=O)CC2)cc1	-1.0%	i	i	2.6e-08	-3%
Cc1cccc(-c2nc(CS(=O)CC(=O)NCCCSC3CCCCC3)c(C)o2)c1 (stereo not given)	-0.4%	i	i	2.5e-08	?
Cc1ccc(-c2noc(CCCC(=O)Nc3cccnc3)n2)cc1	-0.6%	i	i	4.5e-09	15%
Cc1cc(N2CCN(C)CC2)nc2ccc(NC(=O)CCC(=O)NCc3ccco3)cc12	2.7%	i	i	2.8e-09	2%
O=C(OCCN1C(=O)CCC1=O)c1ccc(S(=O)(=O)N2CCCCC2)cc1	-0.4%	i	i	1e-09	-4%
Cc1cc(C(=O)Nc2sc(C)c(C)c2C#N)c(C)o1	0.9%	i	i	2.4e-08	0%
CCOC(=O)C(C(=O)OCC)N(C#N)c1nc(SC)nc(N(C)C)n1	nt	i	i	9.7e-08	nt
CNS(=O)(=O)c1cccc2cccnc12	3.7%	nt	nt	nt	3%
Cc1ccc(SCC(=O)N2CCOCC2)cc1	0.2%	i	i	1e-09	15%
Nc1nc(N2CCCCC2)nc2ccccc12	0.0%	i	i	8.3e-09	10%
O=C(c1csnn1)N1CCC[C@@]2(CCN(c3ccccn3)C2)C1	-0.1%	i	i	2.1e-09	4%
O=C(Nc1ccccc1Cl)NC1(C(=O)NCCCN2CCOCC2)CCCCC1	-2.0%	i	i	1e-09	12%
O=C(NCc1ccccn1)c1nnc(Cc2ccc(Cl)cc2)o1	2.7%	nt	nt	nt	10%
Cc1[nH]c2ccccc2c1C(=O)CN1CCCCC1C (stereo not given)	1.6%	i	i	3.1e-08	nt
Cn1c(Cc2ccccc2)nnc1SCC(=O)c1ccc(Br)s1	0.0%	i	i	3.8e-09	0%
COc1ccc(OC)c(NC(=O)Nc2ccccc2C)c1	1.8%	nt	nt	nt	-12%
CCOC(=O)C1CCN(C(=O)c2sc3nc(-c4ccc(F)cc4)cn3c2C)CC1	-0.9%	i	i	6.8e-09	?
CCCCc1c(O)nc(SCC(=O)N2CCOCC2)[nH]c1=O	-0.8%	i	i	2.7e-08	4%
COc1ccc(C(=O)Nc2cccc(C(=O)N3CCN(C)CC3)c2)cc1	1.5%	i	i	8.3e-09	10%
COc1ccc(CCC(=O)N2CCN(C3CCCCC3)CC2)cc1	1.3%	i	i	5.4e-09	?
COc1cc(C[C@H]2C(=O)OC[C@@H]2Cc2ccc(OC)c(OC)c2)ccc1O	-0.6%	nt	nt	nt	28%
O=C(O)c1ccc(S(=O)(=O)c2ccccc2)cc1	-2.3%	i	i	7e-09	1%
COc1cc(S(=O)(=O)N2CCN(Cc3ccccc3)CC2)ccc1Br	0.5%	i	i	2.2e-08	12%
Cc1cccc(N(CC(=O)NC2CCCCC2)C(=O)CCC(=O)Nc2cc(C)ccn2)c1	-0.5%	i	i	3.4e-08	8%
COc1ccc(S(=O)(=O)NCCSC(C)(C)C)cc1Cl	-1.4%	i	i	2.9e-09	22%
CN(C(=O)c1ccncc1)c1nnc(-c2ccncc2)s1	2.4%	i	i	2.7e-09	-1%
O=C1CC(N2CCOCC2)C(=O)N1c1cc(Cl)cc(Cl)c1 (stereo not given)	3.3%	nt	nt	nt	9%
COc1ccc(CNC(=O)c2cc(C3CC3)on2)cc1	-3.3%	nt	nt	nt	13%
O=C(c1ccc(Cl)cc1)c1ccc(OCC(=O)N2CCOCC2)cc1	-1.4%	i	i	2.6e-09	7%
CC(=O)OC(C(=O)NC1CCCCC1)c1ccncc1 (stereo not given)	-0.8%	i	i	2.9e-08	0%

Other results follow.
SMILES	AID923	Resorufin fluor	A488 autofl	A647 fluor	TSHR agonist
N#Cc1nc(-c2cccs2)oc1NCc1ccccc1	nt	i	i	1e-09	nt
CN(Cc1ccco1)c1ncnc2ccc(-c3ccccc3Cl)cc12	4.1%	i	i	1.6e-08	?
O=C(OCC1CO1)C1CCCCC1C(=O)OCC1CO1 (stereo not given)	1.1%	nt	nt	nt	20%
CC(C)COC(=O)C(C#N)c1nc2ccccc2nc1N1CCN(Cc2ccc3c(c2)OCO3)CC1 (stereo not given)	4.6%	i	i	5e-09	?
Cc1cc(OC(=O)c2ccccc2)n(CCC#N)n1	0.1%	i	i	1e-09	10%
CCSc1nnc(NC(=O)CSc2nnc(Cc3cccn3C)n2-c2ccc(C)cc2)s1	0.1%	i	i	1.4e-08	9%
CCOC(=O)C1CCCN(Cc2ccc3c(c2)OCO3)C1 (stereo not given)	-1.3%	i	i	2.7e-08	1%
C=CCn1c(O)c(C(CC)=NCCN2CCOCC2)c(=O)[nH]c1=O	0.6%	i	i	7.6e-09	-1%
